Marburg entry: qHTS for Inhibitors of binding or entry into cells for Marburg Virus; Marburg virus pseudotype entry/binding inhibition, cell-based; control for the full effect not named in the record; many of its hits are not listed in these tables; Potency, µM (top dose mostly 49.2 µM), for inactives: top-dose activity change, negative = inhibition, actives largely listed as inhibitors; actives 6.5% (n = 18,000); active means well fitted inhibition curve with a large enough effect; inconclusive means small, poorly fitted or top-dose-only effect; inactive means no such curve, though single readings can be large or run the other way; tested in HEK293 cells; further: luciferase read-out
Lassa entry: qHTS for Inhibitors of binding or entry into cells for Lassa Virus. Lassa virus pseudotyped entry inhibition, cell-based qHTS; control for the full effect not named in the record; many of its hits are not listed in these tables. Potency, µM (doses to about 49.2 µM), for the others: at the top dose activity change, negative = inhibition, hits mostly inhibitors. actives 4.1% (n = 18,000). AID 720533, 2013; active = well fitted inhibition curve with a large enough effect; inconclusive = small, poorly fitted or top-dose-only effect; inactive = no such curve, though single readings can be large or run the other way; tested in HEK293 cells; further: luciferase read-out
Starred values were filed as active, the others as inactive; ? = inconclusive; nt = not tested or not shown; + = active, no number; & = joins results of further samples; [ ] = dose if it differs, or a comment. On the % scale 0 is the no-effect control and ±100 the full control effect; potency means the concentration at half of the fitted maximal effect. A portion of the library. The share of hits here may be higher or lower than overall.

nr	molecule	Marburg entry	Lassa entry
1	O=C(NCCCN1CCOCC1)c1cnn(-c2ncc3c(n2)-c2ccccc2CC3)c1C1CC1	?	-11%
2	C[C@]12CCC(=O)C=C1C=C[C@@H]1[C@@H]2CC[C@@]2(C)[C@H]1CC[C@@]2(O)CCC(=O)O	-3%[17.8 µM]	-14%[17.8 µM]
3	CC(C)CC1C(=O)N(Cc2cn(CCC3OCCO3)nn2)CCS(=O)(=O)N1Cc1ccc(-c2ccc(F)cc2)cc1 (stereo unspecified)	-13%	-27%
4	COC(=O)CNC(=O)C(=O)OC	4%&7%	-2%&-2%
5	COc1ccc(CCN)cc1O	-14%	-15%
6	CSc1nnc(CNC(=O)/C=C/c2ccccc2Cl)n1-c1ccc(F)cc1	12%	-15%
7	O[C@H]1CN(Cc2cccs2)[C@@H](c2ccccc2)C[C@H]1n1cc(-c2ccc(F)cc2)nn1	-28%	-14%
8	NC(=O)[C@@H]1CCCN1C(=O)[C@H](Cc1ccccc1)NC(=O)[C@@H]1CCCN1C(=O)[C@@H](N)Cc1ccc(O)cc1	12%	-6%
9	COc1ccc2c(c1)-c1nc(-n3ncc(C(=O)NCC4CCCN(C)C4)c3C3CC3)ncc1CC2 (stereo unspecified)	?	0%
10	CCCC(=O)OCC1CN(Cc2ccco2)S(=O)(=O)c2c(F)cccc2O1 (stereo unspecified)	20%	17%
11	Cc1nc(CN2CCN(C(=O)CC3(c4ccccc4Cl)CC(=O)N(C)C3=O)CC2)cs1 (stereo unspecified)	-8%	-14%
12	CN1CCN(c2c(F)cc3c(=O)c(C(=O)O)cn4c3c2OCN4C)CC1	17%	0%
13	CCSc1nnc(C(C)NS(=O)(=O)c2cccc(Cl)c2C)n1C (stereo unspecified)	-2%	-5%
14	COC(=O)[C@@H]1CCCN1C(=O)c1c(OC)cc(=O)n2c1CCN(Cc1ccc(C)o1)CC2	1%	-11%
15	O=C(O)c1cc2cc(Cc3cccnc3)ccc2o1	-14%	1%
16	COc1ccc(/C=C/C(=O)N2CCc3c(cnc(C)c3CNC(=O)c3ccsc3)C2)cc1OC	-45%	-2%
17	COCC(=O)Nc1cc(C(=O)N[C@H]2CCCCNC2=O)c2c(c1)nc(-c1ccncc1)n2C	-9%	-6%
18	C[C@H]1Cc2c(-c3ccccc3)nc3c(c2CO1)CN(S(=O)(=O)c1ccc2c(c1)OCCN2C)CC3	-12%[8.59 µM]	nt
19	C[C@H]1Cc2c(COc3ccccc3)nc3c(c2CO1)CN(C(=O)c1cc(I)ccc1F)CC3	-26%[8.59 µM]	11%[8.59 µM]
20	O=c1[nH]c(=O)c2nc(Br)n(C3OC(CO)C(O)C3O)c2[nH]1 (stereo unspecified)	1%	-11%
21	COc1ccc(OC)c(-c2ccnc(-n3ncc(C(=O)N(C)CCO)c3C3CC3)n2)c1	29%	-6%
22	CC1(C)CC[C@]2(C(=O)O)CC[C@]3(C)C(=CCC4[C@@]5(C)CC[C@H](O)C(C)(C)[C@@H]5CC[C@]43C)C2C1 (stereo partly specified)	-17%	?
23	N[C@H](C(=O)O)c1ccc(C(=O)O)c(O)c1	?	2%&8%
24	CC(=O)OC1CC[C@]2(C)C(CCC3C2CC[C@]2(C)C(C4=CC(=O)OC4)C(OC(C)=O)CC32O)C1 (stereo partly specified)	0.71µM*	1.4µM*
25	COc1ccc(OCc2cn(CC(=O)c3ccc(O)cc3)nn2)cc1	28%	-11%

Later entries.
nr	molecule	Marburg entry	Lassa entry
26	CC(C)[C@@H](CC(=O)N[C@@H]1CCCC[C@H]1C(=O)N[C@H](CC(=O)N[C@@H](CCC(=O)O)CC(=O)O)Cc1c[nH]c2ccccc12)NC(=O)C[C@H](Cc1c[nH]c2ccccc12)NC(=O)[C@@H]1CCCC[C@H]1N	-5%	-17%
27	O=C(O)C1CC(C2CCCCN2)CN2CCCCC12 (stereo unspecified)	-5%	-7%
28	C[C@@H](C1[C@@H](O)CC2C3C=CC4C[C@@H](O)CC[C@]4(C)[C@H]3CC[C@@]21C)[C@@H]1CCCCN1 (stereo partly specified)	11µM*	6%
29	O=c1c(O)c(-c2ccc(O)c(O)c2)oc2c(OC3OC(CO)C(O)C(O)C3O)c(O)cc(O)c12 (stereo unspecified)	-23%	4%
30	CN1CCc2c(c3ccccc3n2Cc2ccccc2)C1	18µM*	?
31	CCCCCC[C@@H]([C@@H](C)O)n1cnc2c(N)ncnc21	12%&8%&10%	-5%&8%&7%
32	CC(=O)OC[C@H]1O[C@H](CC=NOC[C@@H](O)COCc2ccco2)C=C[C@H]1OC(C)=O	1%[8.59 µM]	-4%[8.59 µM]
33	COC(=O)[C@H](Cc1ccccc1)NC(=O)O[C@@H]1C(=O)c2cc(Br)ccc2O[C@H]1c1ccc2c(c1)OCO2	-9%	-8%
34	COc1ccc(C(C)N(C)Cc2nc(N3CCN(C(=O)c4ccco4)CC3)c3ccccc3n2)cc1 (stereo unspecified)	?	-28%
35	COC(=O)c1ccccc1NC(=O)c1ccc(F)cc1	-8%	6%
36	O=C(c1cccc(Cl)c1)N1CCCC(Cn2cc(C(=O)N3CCCC3)nn2)C1 (stereo unspecified)	?	-5%
37	C=C1Cc2c(Cl)cc3[nH]c4c5c3c2[C@@]2(O)[C@@H]1C[C@@H]2C(C)(C)O[C@H]5[C@@H]1CC[C@@]2(O)[C@@]35O[C@@H]3[C@@H](O)[C@@H](C(=O)O)O[C@H]5CC[C@]2(C)[C@@]41C	?	28µM*
38	CCCCCCCCCCCCCCOc1ccc(C(=O)O)o1	?	0.56µM*
39	COCCN1C(=O)N[C@@H](c2cccs2)C(C(=O)OC)=C1C	16%	?
40	COC(=O)c1ccc(CN2C(=O)[C@]3(O[C@H](C)CC4=CCCC43)c3c(Br)cccc32)cc1 (stereo partly specified)	5%[8.59 µM]	-6%[8.59 µM]
41	S=C=Nc1cccc(NC(=S)NCCCCNC(=S)Nc2cccc(N=C=S)c2)c1	-9%	-4%
42	CC(C)c1c(C(=O)NCCN2CCOCC2)cnn1-c1nccc(-c2ccco2)n1	14%	3%
43	O=S1(=O)CC(N2CCN(c3ccccn3)CC2)CN1C1CCCCC1 (stereo unspecified)	42%	42%[activator]
44	COc1ccc2c(c1)OC(C)CN(CC(=O)NCc1cn[nH]c1-c1ccc(F)cc1)C2 (stereo unspecified)	-10%	-9%
45	C[C@]1(O)CC[C@H]2[C@@H]3CCC4=CC(=O)CC[C@]4(C)[C@@]3(F)[C@@H](O)C[C@@]21C	-6%	-9%
46	CC(C)C[C@@H](COCc1cccc(Cl)c1)N1CCN(C(=O)c2cccc(C(F)(F)F)c2)CCC1=O	?	?
47	COC(=O)Nc1ccc2[nH]cc(CCNC(C)=O)c2c1	11%&16%&8%	3%&1%&-17%
48	O=c1oc(Cl)c(Cl)c2ccccc12	-3%	-11%
49	CCC1(C2CCN(Cc3ccc(C)s3)CC2)NC(=O)N(CC2COc3ccccc3O2)C1=O (stereo unspecified)	?	-7%
50	CC(C)Oc1cccc(NC(=O)c2ccccc2C(F)(F)F)c1	-15%[107 µM]	-27%[107 µM]

Sorted by molar mass (smallest number first): 13 of the compounds above
nr	molecule	Marburg entry	Lassa entry
5	COc1ccc(CCN)cc1O	-14%	-15%
27	O=C(O)C1CC(C2CCCCN2)CN2CCCCC12 (stereo unspecified)	-5%	-7%
31	CCCCCC[C@@H]([C@@H](C)O)n1cnc2c(N)ncnc21	12%&8%&10%	-5%&8%&7%
50	CC(C)Oc1cccc(NC(=O)c2ccccc2C(F)(F)F)c1	-15%[107 µM]	-27%[107 µM]
38	CCCCCCCCCCCCCCOc1ccc(C(=O)O)o1	?	0.56µM*
25	COc1ccc(OCc2cn(CC(=O)c3ccc(O)cc3)nn2)cc1	28%	-11%
36	O=C(c1cccc(Cl)c1)N1CCCC(Cn2cc(C(=O)N3CCCC3)nn2)C1 (stereo unspecified)	?	-5%
14	COC(=O)[C@@H]1CCCN1C(=O)c1c(OC)cc(=O)n2c1CCN(Cc1ccc(C)o1)CC2	1%	-11%
17	COCC(=O)Nc1cc(C(=O)N[C@H]2CCCCNC2=O)c2c(c1)nc(-c1ccncc1)n2C	-9%	-6%
22	CC1(C)CC[C@]2(C(=O)O)CC[C@]3(C)C(=CCC4[C@@]5(C)CC[C@H](O)C(C)(C)[C@@H]5CC[C@]43C)C2C1 (stereo partly specified)	-17%	?
1	O=C(NCCCN1CCOCC1)c1cnn(-c2ncc3c(n2)-c2ccccc2CC3)c1C1CC1	?	-11%
33	COC(=O)[C@H](Cc1ccccc1)NC(=O)O[C@@H]1C(=O)c2cc(Br)ccc2O[C@H]1c1ccc2c(c1)OCO2	-9%	-8%
26	CC(C)[C@@H](CC(=O)N[C@@H]1CCCC[C@H]1C(=O)N[C@H](CC(=O)N[C@@H](CCC(=O)O)CC(=O)O)Cc1c[nH]c2ccccc12)NC(=O)C[C@H](Cc1c[nH]c2ccccc12)NC(=O)[C@@H]1CCCC[C@H]1N	-5%	-17%

Continued:
nr	molecule	Marburg entry	Lassa entry
51	COCCN1C(=O)N[C@@H](c2ccc(Br)cc2)C(C(=O)OC)=C1C	6%	-6%
52	COC(=O)CCCC1=CC2=C(c3ccccc3)C(=O)C(C)(OC(=O)C3CCCC3)C(=O)C2=CN1CCc1ccccn1 (stereo unspecified)	-21%[8.59 µM]	2%[8.59 µM]
53	COCCN1C(=O)C2=C(C1=O)C1N(C)c3ccccc3[C@@]13C[C@@H](CO)N(C(C)=O)C3=N2 (stereo partly specified)	14%[8.59 µM]	3%[8.59 µM]
54	CC(C)[C@H](N)C(=O)N[C@@H](CCC(N)=O)C(=O)NCC(=O)N[C@@H](CCC(=O)O)C(=O)N[C@@H](CCC(=O)O)C(=O)N[C@@H](CO)C(=O)N[C@@H](CC(N)=O)C(=O)N[C@@H](CC(=O)O)C(=O)N[C@@H](CCCCN)C(=O)O	-11%	6%
55	Cc1ccc(C)c(CN2CCc3nnc(CNC(=O)c4cc(C)oc4C)n3CC2)c1	+	-4%
56	Nc1nc2c(c(=O)[nH]1)N(C=O)C(CNc1ccc(C(=O)N[C@@H](CCC(=O)O)C(=O)O)cc1)CN2 (stereo partly specified)	19%[17.8 µM]	-6%[17.8 µM]
57	NC[C@](O)(CS(=O)(=O)O)c1ccc(Cl)cc1	-4%	-4%
58	FC(F)(F)c1ccccc1-c1nc(N2CCNCC2)c2ccccc2n1	?	-1%
59	C[C@@H]1C(c2ccc(F)cc2)=NN(c2ccc(Br)cc2)[C@H]1C(=O)N1CCOC1=O	-15%	-22%
60	COc1ccccc1C(=O)N(Cc1cc2cc3c(cc2nc1N(C)C)OCO3)CC1CCCO1 (stereo unspecified)	13µM*	11µM*
61	Clc1cc(Cl)cc(C2=N[C@@H](Cc3ccccc3)CO2)c1	23%	-7%
62	COc1cc(C[C@H](C)N)c(OC)cc1C	-18%[107 µM]	14%[107 µM]
63	Cc1cccc(C)c1Nc1oc(-c2ccccc2)nc1C(C)(C)C	2%[8.59 µM]	17%[8.59 µM]
64	Cc1ncc2c(c1CNS(=O)(=O)N(C)C)CCN(C(=O)c1c(F)cccc1F)C2	-9%	-8%
65	CCOC(=O)C1CCCN(C(=O)c2cnn(-c3ncc4c(n3)-c3ccccc3CCC4)c2C2CC2)C1 (stereo unspecified)	30%[activator]	28%
66	O=C(Nc1ccc(C(=O)Nc2ccc(C(=O)Nc3ccc(S(=O)(=O)O)c4cc(S(=O)(=O)O)cc(S(=O)(=O)O)c34)cc2)cc1)Nc1ccc(C(=O)Nc2ccc(C(=O)Nc3ccc(S(=O)(=O)O)c4cc(S(=O)(=O)O)cc(S(=O)(=O)O)c34)cc2)cc1	4µM*	5%&-6%
67	C#CCN1C(=O)[C@]2(OCCC=C[C@H]2C)c2c(Br)cccc21	?	1%[8.59 µM]
68	COc1cc(C[C@@H](C)N)c(OC)cc1C	?	-9%[107 µM]
69	CC(C)=CCn1cnc2c1c(=O)n(C)c(=O)n2C	-10%	-9%
70	COC1=C[C@H](C(=O)NCc2ccc(OC)cc2)C(C)C(c2ccccc2)CC1=O (stereo partly specified)	3%[8.59 µM]	-22%[8.59 µM]
71	O=C(Nc1cc(C(F)(F)F)cc(C(F)(F)F)c1)c1cc(Cl)ccc1O	1µM*	1.1µM*
72	Nc1ccc2oc(=O)ccc2c1I	4%	-14%
73	O=C(Nc1cccc(C(=O)N2CCCCC2)c1)c1ccccc1	9%	7%
74	COc1ccc2[nH]cc(CCNc3cc(-c4ccccc4C(F)(F)F)ncn3)c2c1	-16%	2%
75	c1ccc(-c2[nH]ncc2-c2ccnc(-c3ccc(OCCN4CCOCC4)cc3)c2)nc1	-19%	-14%

Carrying on.
nr	molecule	Marburg entry	Lassa entry
76	CC(=O)OCC(CCn1cnc2cnc(N)nc21)COC(C)=O	4%	-6%
77	Cc1ccccc1C1(CC(=O)N2CCCC2c2nccs2)CC(=O)N(C2CCCC2)C1=O (stereo unspecified)	6%	56%[activator]
78	Cc1ccc2c(c1)CC[C@H]1CC(=O)CC[C@@]21C	5%	-12%
79	c1cc[n+]2c(c1)-c1cccc[n+]1CC2	-23%	?
80	COCCNc1ncnc2ccc(-c3ccccc3CN(C)C)cc12	-5%	-11%
81	CC(=O)OC1CC2C(C)(C)C(=O)C3OC3[C@]2(C)C2CC[C@@]3(C)C(c4ccoc4)OC(=O)C4OC43[C@]12C (stereo partly specified)	?	?
82	C[C@H](NCc1ccccc1)c1ccccc1	-1%	1%
83	O=C(c1cccs1)N1C[C@@H](O)[C@@H](n2cc(-c3ccc(F)cc3)nn2)C[C@@H]1c1ccccc1	-21%	-26%
84	COc1cccc(-c2cncnc2NCCc2cnc[nH]2)c1	-20%	2%
